# Screening data: PubChem, National Center for Advancing Translational Sciences (NCATS)
# TSHR agonist – activates the human thyroid stimulating hormone receptor. P16473. HEK293-CNG-TSHR cells (CNG channel as cAMP sensor), membrane potential dye, cAMP. Potency, µM (highest dose often 57.1 µM), inactives show top-dose activation, most hits filed as activators. hit rate 0.48% among 73,000. AID 926; active = well fitted activation curve of enough size with the parental cells flat; inconclusive = any curve in the parental cells; inactive = parental cells flat and receptor cells flat or falling; further: potency means the concentration at half of the fitted maximal effect; % of control where 0% means no effect; weak receptor curves with flat parental cells got no call and are not listed
# Target sequence (P16473 whole entry, looked up): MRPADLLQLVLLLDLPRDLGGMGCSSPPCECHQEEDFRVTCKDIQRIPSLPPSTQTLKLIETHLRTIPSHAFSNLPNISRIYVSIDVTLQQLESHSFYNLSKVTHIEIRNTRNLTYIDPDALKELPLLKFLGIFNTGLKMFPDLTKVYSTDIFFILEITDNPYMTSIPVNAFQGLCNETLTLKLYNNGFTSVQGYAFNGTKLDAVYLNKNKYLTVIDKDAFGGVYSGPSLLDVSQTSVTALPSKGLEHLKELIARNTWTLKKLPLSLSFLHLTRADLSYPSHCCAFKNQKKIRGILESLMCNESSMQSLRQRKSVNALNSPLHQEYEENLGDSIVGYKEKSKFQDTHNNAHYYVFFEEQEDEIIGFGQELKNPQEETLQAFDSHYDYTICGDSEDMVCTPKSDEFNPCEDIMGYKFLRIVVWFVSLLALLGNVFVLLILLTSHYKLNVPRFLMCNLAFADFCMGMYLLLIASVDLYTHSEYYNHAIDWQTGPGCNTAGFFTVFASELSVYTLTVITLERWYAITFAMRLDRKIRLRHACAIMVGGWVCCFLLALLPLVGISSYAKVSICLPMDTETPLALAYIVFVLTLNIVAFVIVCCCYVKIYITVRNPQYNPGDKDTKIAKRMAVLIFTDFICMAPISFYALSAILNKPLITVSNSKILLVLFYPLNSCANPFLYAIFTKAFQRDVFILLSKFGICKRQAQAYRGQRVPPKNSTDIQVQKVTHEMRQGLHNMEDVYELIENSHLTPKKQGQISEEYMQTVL
#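 HEK 293 cells stably expressing TSHR and a cAMP-gated CNG channel; parental CNG-only cells as counterscreen. Cells preloaded 60 min with membrane potential dye plus 100 uM RO 20-1724, then compound 30 min; fluorescence read at 590 nm.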
# Resorufin fluor – compounds fluorescent in resorufin spectral region. Compound fluorescence, resorufin region 547/598 nm, buffer; active compounds read high. max dye-equivalent concentration, M. hit rate 0.04% among 59,000; active = above 10 nM dye equivalent; inconclusive = 1 to 10 nM; inactive = 1 nM or less; a few of its hits are not listed in these tables; further: highest value over a series up to 38 µM
#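 Compounds in 100 mM Tris, pH 8.0, incubated 15 min at room temperature, then fluorescence read at 547 nm excitation/598 nm emission. Signal converted to dye-equivalent concentration via an on-plate six-point resorufin standard curve, per compound concentration.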
# A647 autofl – compound fluoresces in the A647 spectral region. Compound fluorescence, A647 channel (570/671 nm), Tris buffer. max dye-equivalent concentration, M. 59,000 tested, under 10 active. AID 592; active means above 1 µM dye equivalent; inconclusive means 0.1 to 1 µM; inactive means 0.1 µM or less;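 further: values scaled relative to a standard on each plate; highest value over a series up to 38 µM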
#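 Buffer was dispensed, compounds and Alexa 647 standards were pin-transferred, and plates sat 15 min at room temperature. Intensity at 570/671 nm was then converted to dye-equivalent concentration using the plate's A647 standard curve.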
# A488 fluor – compound fluoresces in the A488 spectral region; compound autofluorescence, A488 spectral region, dye equivalency; active compounds read high; max dye equivalency, M; hit rate 0.1% among 59,000; active = above 10 nM dye equivalent; inconclusive = 1 to 10 nM; inactive = 1 nM or less; about half of its hits are not listed in these tables;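 further: highest value over a series up to 38 µM; compound alone in buffer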
#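 Autofluorescence read at ex 480/em 540 nm after 15 min RT in 100 mM Tris pH 8.0; compound signal normalized to A488 standard series on each plate, reported as dye-equivalent concentration at each test concentration.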
# AID923 – qHTS Assay for Allosteric/Competitive Inhibitors of Caspase-1: Spectroscopic Profiling in AFC Spectral Region | Potency, µM (highest dose often 57.5 µM), inactives show top-dose fluorescence increase, usual class: activators | hit rate 1.1% among 75,000 | compound fluorescence, AFC spectral region (405/520 nm); almost no hit is shown here; active means well fitted activation curve with a large enough effect; inconclusive means small, poorly fitted or top-dose-only effect;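 further: potency means the concentration at half of the fitted maximal effect; 0% is about no effect; scaled to a free AFC standard on each plate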
#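 Baseline compound fluorescence (AFC region, 405 nm ex/520 nm em) taken from the intercept of kinetic reads with 50 nM caspase-1 and 5 uM Ac-WEHD-AFC; normalized to an on-plate AFC standard curve; compounds titrated up to 57 uM.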
# Starred values were filed as active, the others as inactive; i = inactive; ? = inconclusive; · = not tested or not shown; & = joins results of further samples; [ ] = remark or other dose. Not all compounds are listed. The share of hits here may be higher or lower than overall.
SMILES,TSHR agonist,Resorufin fluor,A647 autofl,A488 fluor,AID923
Cc1cc(NC(=O)CSc2nc3ccccc3n2CC(=O)N2CC(C)CC(C)C2)no1 (centres undefined),3%[11.4 µM],i,1.3e-09,i,-1.7%
O=C(Oc1oc(-c2ccco2)nc1C=Nc1ccccc1)c1ccoc1,·,i,2.4e-08,i,·
CCOC(=O)[C@]1(C(NC(=O)OC)c2cccc(C)c2)CCCC1=O (some centres undefined),-7%[11.4 µM],·,·,·,-0.2%[11.5 µM]
CCc1ccc(NC(=O)CSc2nnc(CNC(=O)c3c(F)cccc3Cl)o2)cc1,?,i,6.5e-09,i,1.1%
Cc1ccc(-c2nc(CS(=O)CC(=O)NC3CCC(C)CC3)c(C)o2)cc1 (centres undefined),11%,·,·,·,-1.2%
CCCCOc1ccc(Cl)cc1CSc1nnc(C)n1N,18%,i,1e-09,i,1.8%
CSc1nc(C)cc(OCC(=O)n2nc(C)cc2C)n1,·,i,1.7e-08,i,-1.0%
COc1ccc(Cc2nc(-c3cccs3)no2)cc1OC,?,·,·,·,-0.1%
CC[N+](CC)(CC)C/C(N)=N/O,·,i,2.6e-08,i,0.0%
COc1ccc(NC(=O)c2ocnc2C)cc1OC,0%,i,5.1e-09,i,0.7%
CC(=O)OCC1OC(n2ccc(=O)[nH]c2=O)C(O)C1O (centres undefined),1%[11.4 µM],i,2.9e-08,i,1.9%
COC(=O)c1sccc1NC(=O)CSc1nnnn1-c1ccccc1F,?,i,4.5e-09,i,0.4%
C=C(C)COc1ccc2oc(C)c(C(=O)OCCOC)c2c1,?,·,·,·,2.4%
COc1ccc(OC)c(S(=O)(=O)NCCO)c1,-9%,i,9.9e-09,i,-1.3%
CC12CC3CC(C)(C1)CC(C(=O)Nc1nn[nH]n1)(C3)C2,15%,i,1e-09,i,5.2%
O=C(Nc1cccc2cccnc12)c1cccnc1,-2%,i,1e-09,i,1.6%
COC(=O)CSc1nnc(CNC(=O)c2cccs2)n1-c1cc(OC)ccc1OC,12%,i,3e-08,i,-0.8%
CCOC(=O)c1c(C)n(C)c2ccc(OC)c(NC(=O)CN3CCN(Cc4ccccc4)CC3)c12,·,i,1.2e-08,i,·
O=C(CSc1nc2c(c(=O)[nH]1)CCCC2)Nc1ccc(Cl)cc1F,15%,i,4.9e-08,i,-0.3%
COCCCNS(=O)(=O)c1ccc2c(c1)CCN2C(C)=O,2%,i,1.7e-08,i,2.3%
COc1ccc(CCNC(=O)C2CCCN2C(=O)NC2CCCCC2)cc1OC (centres undefined),-1%,i,4.6e-08,i,2.2%
Cc1c(/C(O)=C2/C(=O)C(=O)N(CCN3CCOCC3)C2c2cccnc2)cnn1-c1ccccc1 (centres undefined),·,i,1e-08,i,·
Cc1nnc(SCc2ccccc2Cl)n1CC1CCCO1 (centres undefined),5%,i,8.4e-09,i,-0.3%
Cc1ccc2c(c1C)NC(=O)C2(O)CC(=O)c1ccc2c(c1)OCO2 (centres undefined),6%,i,2.3e-08,i,-0.6%
O=C(O)CCN=C1CCCc2ccccc2N1,4%,i,1e-09,i,0.2%
CC12CCC(C(=O)NCc3ccccc3)(OC1=O)C2(C)C (centres undefined),?,i,2e-08,i,-0.9%
CCc1nc(SCC(=O)N2CCc3ccccc32)c2oc3ccccc3c2n1,20%,i,2.5e-08,i,2.0%
COc1ccc(C(=O)COC(=O)c2ccc(OC)c(OC)c2)cc1OC,?,i,1e-09,i,-1.3%
O=C(C1CCN(S(=O)(=O)N2CCC3(CC2)OCCO3)CC1)N1CCN(Cc2ccccc2)CC1,-8%,i,3e-09,i,-0.9%
CC1=C(C(=O)N2CCCCC2)C(c2cccs2)C2=C(CCCC2=O)N1 (centres undefined),16%,·,·,·,2.7%
COc1ccccc1CNc1ccnc(-c2cccc(NS(C)(=O)=O)c2)n1,22%,i,1e-09,i,0.5%
CCCC[C@@H]1C[C@H]1C(NC(=O)c1ccco1)c1ccccc1 (some centres undefined),?,·,·,·,-0.2%
CCOC(=O)c1ccc(NC(=O)C2=C(C)Nc3nc(CCCO)nn3C2c2cccc(C)c2)cc1 (centres undefined),?,·,·,·,4.8%
CCn1c(=O)[nH]c2cc(Cl)c(Cl)cc21,16%,i,1e-09,i,-2.4%
CCCCC(=O)Nc1ccc(C(=O)N2CCN(c3ccccc3OC)CC2)cc1,-13%,i,3e-08,i,0.1%
CCOC(=O)C1CCN(C(c2ccc(OC)c(OC)c2)c2sc3nc(C)nn3c2O)CC1 (centres undefined),?,·,·,·,-2.1%
COc1ccc(CNc2nc3nc(C)cc(C)n3n2)cc1OC,6%,i,1.2e-08,i,0.1%
COc1cc2c(cc1OC)C(c1cccc(OC)c1OC)CC(=O)N2 (centres undefined),·,i,3.6e-08,i,0.2%
C=CCOC(=O)C1=C(C)NC(=O)NC1c1ccc(OC(=O)c2ccco2)c(OC)c1 (centres undefined),4%,·,·,·,7.2%
O=C(CSc1nnc(Cc2cccs2)n1C1CCCCC1)N1CCN(C(=O)c2ccco2)CC1,4%,i,3.7e-08,i,2.0%

# Individual results from the results shown.
# CC12CCC(C(=O)NCc3ccccc3)(OC1=O)C2(C)C (centres undefined) in A647 autofl → 2e-08
# COc1ccc(C(=O)COC(=O)c2ccc(OC)c(OC)c2)cc1OC in AID923 → -1.3%
# CC1=C(C(=O)N2CCCCC2)C(c2cccs2)C2=C(CCCC2=O)N1 (centres undefined) in TSHR agonist → 16%
# O=C(C1CCN(S(=O)(=O)N2CCC3(CC2)OCCO3)CC1)N1CCN(Cc2ccccc2)CC1 in TSHR agonist → -8%
# Cc1nnc(SCc2ccccc2Cl)n1CC1CCCO1 (centres undefined) in A647 autofl → 8.4e-09

# More records follow:
SMILES,TSHR agonist,Resorufin fluor,A647 autofl,A488 fluor,AID923
CCOc1ccc(NC(=O)N(CCC(C)C)C(C)c2ccco2)cc1 (centres undefined),?,i,4.6e-08,i,-0.6%
CCN(CC)CC(=O)N(CC(=O)Nc1c(C)cc(C)cc1C)C1CCCCC1,11%,i,1.4e-08,i,1.0%
CCN(Cc1ccccc1)Cc1cc(OC)cc(OC)c1,?,·,·,·,-1.3%
CCOC(=O)c1c(N)sc2c1CCS(=O)(=O)C2,1%,i,3.9e-08,i,1.4%
COc1ccc2nc(C)cc(N3CC(C)OC(C)C3)c2c1 (centres undefined),?,i,1e-09,i,-0.4%
COc1cccc(NC(=O)CSC2=C(C#N)C(c3ccco3)C3=C(CCCC3=O)N2)c1 (centres undefined),·,i,9.7e-08,i,·
Cc1nc(CC(=O)N2CCN(c3cccc(C)c3C)CC2)cs1,7%[11.4 µM],i,2.6e-09,i,-0.4%
CCCCCCCCCCCCCCCC(=O)NC(C)C,-2%,·,·,·,0.0%
CCn1nc(C(=O)OCC(=O)c2cc(C)n(Cc3cccs3)c2C)c2ccccc2c1=O,?,i,1.5e-08,i,1.1%
CSc1nnc(-c2ccccc2)n1C,-4%,i,1e-09,i,0.2%
CCOc1ccc(C2Oc3nc(SC)nnc3-c3ccccc3N2C(C)=O)cc1OC (centres undefined),-8%,·,·,·,4.0%
O=C(COC(=O)COc1ccc(Nc2ccccc2)cc1)NCc1ccco1,-4%,i,1.8e-08,i,0.8%
CCOC(=O)N1CCN(C(=O)c2ccc(C)c(S(=O)(=O)Nc3cccc(C)c3C)c2)CC1,16%,i,1e-09,i,-0.4%
NC(=O)c1ccc(-c2ccc(Br)cc2)o1,5%,i,5.5e-09,i,1.4%
Cc1noc(C)c1-c1cc(NC2CC2)ncn1,2%,i,1e-09,i,-1.8%
CC(=O)Nc1nc(-c2ccc(Cl)cc2)nc(C)c1C(C)=O,-4%[11.4 µM],·,·,·,-0.1%
O=S(=O)(c1cccc2nsnc12)N1CCCC1,-1%,i,5.2e-09,i,1.3%
C=CCN(CC=C)S(=O)(=O)c1ncn[nH]1,1%,i,1e-09,i,0.2%
CC1CCCCC1NC(=O)C1CCN(S(=O)(=O)N2CCOCC2)CC1 (centres undefined),0%,i,2.2e-09,i,-1.2%
C=CCNC(=O)C1CCN(S(=O)(=O)c2ccccc2)CC1,-1%,i,1.3e-08,i,0.3%

# Single records, as listed above.
# O=C(CSc1nc2c(c(=O)[nH]1)CCCC2)Nc1ccc(Cl)cc1F is entered as TSHR agonist = 15%; Resorufin fluor = i; A647 autofl = 4.9e-08; A488 fluor = i; AID923 = -0.3%
# COCCCNS(=O)(=O)c1ccc2c(c1)CCN2C(C)=O is entered as TSHR agonist = 2%; Resorufin fluor = i; A647 autofl = 1.7e-08; A488 fluor = i; AID923 = 2.3%

# Carrying on.
SMILES,TSHR agonist,Resorufin fluor,A647 autofl,A488 fluor,AID923
CCOC(=O)N1CCN(Cc2nc3c(c(=O)n(C)c(=O)n3C)n2Cc2cc(C)ccc2C)CC1,4%,i,2.4e-08,i,3.8%
CCCC(C)C1C(C#N)=C(N)Oc2cc(C)oc(=O)c21 (centres undefined),-1%,i,2.5e-08,i,-1.2%
Cc1cc(NC(=O)COC(=O)C2CCN(S(=O)(=O)c3ccc(Cl)cc3)CC2)no1,0%,i,1.4e-08,i,-2.2%
O=C(O)CCC(=O)Nc1nnc(C(F)(F)F)s1,-3%,i,1e-09,i,-2.5%
C=C(C#N)C(=O)OCC,?,·,·,·,-4.9%
CN(C)CCC=C1c2ccccc2CCc2ccccc21,21%,i,4.6e-08&6.5e-09&1e-09,i,0.8%
Cc1sc2ncnc(OCC(=O)NCc3cccs3)c2c1C,9%,i,1.1e-09,i,1.6%
Cc1ccc(C)c(-n2c(Cc3cc(=O)[nH]c(=O)[nH]3)nnc2SCC(=O)NCC2CCCO2)c1 (centres undefined),-4%,i,5.4e-08,i,-0.9%
Cc1ccccc1NC(=O)CSc1[nH]c(=O)cc(C)c1C#N,14%,·,·,·,-1.5%
CCOC(=O)CCCn1c(C)nc(=O)c(-c2ccccc2)c1C,0%,i,2.2e-09,i,-0.1%
Brc1c(NC2=NCCN2)ccc2nccnc12,5%&2%,i,1e-09&7e-09,i,-3.7%&-1.5%
CCCCSc1nsc(NC(C)=O)n1,-1%,i,1e-09,i,-0.9%
CCCS(=O)(=O)NCCc1cc2ccc(C)cc2[nH]c1=O,3%,i,1e-09,i,1.7%
CSCC[C@H](NC(=O)C1CCN(S(=O)(=O)c2ccc(C)cc2)CC1)C(=O)NCc1ccco1,-1%,i,2.2e-08,i,-0.2%
COc1ccc(COC(=O)N/N=C2/C[C@@H](O)[C@@H](O)[C@@H]3[C@@H]4C(=O)N(Cc5ccccc5)C(=O)[C@H]4CC[C@@H]23)cc1,-3%[11.4 µM],·,·,·,-1.3%[11.5 µM]
Cc1cc(N2CCN(C(=O)c3ccco3)CC2)n2nc(-c3cccc(Cl)c3)cc2n1,?,i,1.8e-08,i,-0.4%
CCOC(=O)c1cnn(CCOC(=O)C(C)(C)C)c1NC(=O)C(C)(C)C,3%,i,3.7e-09,i,0.6%
COc1ccc(Br)cc1CNC(=O)C1CCCN(S(C)(=O)=O)C1 (centres undefined),-24%,i,1e-09,i,2.0%
O=C1CC(N2CCOCC2)C(=O)N1Cc1ccc(N2CCCC2=O)cc1 (centres undefined),·,i,6.3e-09,i,-2.0%
CCOC(=O)N1CCN(C(=O)c2cc(C)c3c(C)nn(-c4ccccc4)c3n2)CC1,6%,i,2.4e-08,i,-1.0%
Cc1c(C(=O)N2CC(C)OC(C)C2)sc2nc(-c3ccc(F)cc3)cn12 (centres undefined),-1%,i,1e-09,i,1.0%
CCOC(=O)CCN1C(=O)[C@@H]2[C@H]3C(=CC[C@H]2C1=O)C(=O)[C@H]1O[C@H]1[C@H]3O,-3%[11.4 µM],·,·,·,17%[11.5 µM]
COC(=O)c1cc(Br)c(=O)n(CCN2CCOCC2)c1,12%,i,1e-09,i,0.4%
O=C(CCS(=O)(=O)c1ccc(Br)s1)NCc1ccc2c(c1)OCO2,1%,i,1.8e-08,i,-0.4%
Cc1ccc2nc(SCC(=O)NC(=O)NCc3ccco3)[nH]c2c1,4%,i,3.4e-08,i,-0.2%
